Screening data deposited in PubChem by several laboratories.
MT1-MMP reporter – MT1-MMP gene expression reporter suppression – cell-based, luciferase reporter, luminescence (AID 618). MT1-MMP promoter luciferase reporter cells, luminescence. calls from a first round at 10 µM; hits with a dose series show EC50 in µM. 0.62% of 87,000 active;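 active = over half of the reporter light lost at 10 µM or EC50 under 50 µM; inactive = the rest and hits that failed the dose series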;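 also: actives suppress MT1-MMP promoter-driven transcription so potencies describe inhibitors; HT1080 fibrosarcoma cells; overnight exposure; toxic or luciferase-blocking compounds were not removed from the actives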
Hsc70 – small molecules displacing fluorescent ligand from Hsc70 – biochemical, fluorescence polarization, primary screen (AID 568). Hsc70 fluorescence polarization, probe displacement; higher % means a stronger effect; strong numbers were not always called active. displacement, % at 20 µM, or IC50 in µM where a hit was titrated. 83,000 tested, under 10 active;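 active = displacement above 50% without optical interference and an IC50 on retest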;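 also: ATPase domain with a fluorescein-tagged ATP probe; 0% = vehicle and 100% = excess ADP; read after one hour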
WNV NS2B-NS3 inh – blocks West Nile virus NS2B-NS3 protease activity. AID 577. z-score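 (tested at a level between 10 and 100 µM)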. 0.18% of 65,000 active. WNV NS2B-NS3 protease, fluorogenic substrate Ex360/Em465; stronger effect = lower value. P06935;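 active = z-score at -3 or under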;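 also: score is relative to mean and spread of the compound wells of a plate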
Target sequence (P06935 1371-1501 limits assumed): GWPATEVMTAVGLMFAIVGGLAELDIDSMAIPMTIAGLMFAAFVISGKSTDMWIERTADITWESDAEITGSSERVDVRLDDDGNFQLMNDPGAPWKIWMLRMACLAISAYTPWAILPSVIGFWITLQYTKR
Target sequence (P06935 1502-1679 limits assumed): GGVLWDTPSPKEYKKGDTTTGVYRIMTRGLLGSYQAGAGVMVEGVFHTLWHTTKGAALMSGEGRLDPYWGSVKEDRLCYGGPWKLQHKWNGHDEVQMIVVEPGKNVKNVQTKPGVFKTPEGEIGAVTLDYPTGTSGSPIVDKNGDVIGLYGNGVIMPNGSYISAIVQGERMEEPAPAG
An asterisk follows results filed as active; i = inactive; / = no result given.

canonical_smiles | MT1-MMP reporter | Hsc70 | WNV NS2B-NS3 inh
COc1cccc(C(=O)CSc2nnc(CNS(=O)(=O)c3ccc(C)cc3)n2C)c1 | i | -6.5% | 0.88
CCOc1cc(CN2CCN(C(=O)CC(C)C)CC2)ccc1OC | i | -5.9% | 0.22
COc1cc(S(=O)(=O)NCc2ccccn2)c(OC)cc1Cl | i | 3.1% | /
COc1ccc(C(=O)N2CCN(c3nnnn3-c3ccccc3)CC2)cc1OC | i | 3.2% | -0.28
COc1ccc(Nc2cc(C)nc(N3CCOCC3)n2)cc1 | i | -6.0% | -0.32
COC(=O)C(C)Sc1nc2c(c(=O)[nH]c(=O)n2C)n1CCCc1ccccc1 (stereo not given) | i | 3.7% | 2.2
COc1cc(-c2nnc(CSc3nnc4nc(C)cc(C)n34)o2)cc(OC)c1OC | i | 1.8% | 0.64
Cc1ccc2c(CSc3nnc(C4CC4)n3N)cc(=O)oc2c1C | i | -8.7% | 0.5
Cc1ccc(C(=O)Nc2nncs2)cc1S(=O)(=O)N1CCOCC1 | i | 3.3% | -0.45
CC(=O)c1cc(C#N)c(SCC(=O)C(C)(C)C)nc1C | i | -4.1% | 0.79
CCCCCCOC(=O)c1ccc(OC(=O)c2cccnc2)cc1 | i | 4.6% | /
CCOC(=O)Cc1csc(NC(=O)c2ccc(S(=O)(=O)N3CCCC3)cc2)n1 | i | 0.8% | -0.16
O=C(COC(=O)c1cc(=O)[nH]c2ccccc12)NC(=O)NC1CCCCC1 | i | -2.8% | 0.76
Cc1nc2ccc(S(=O)(=O)N(C)CC(=O)N3CCc4ccccc4C3)cc2s1 | i | 1.2% | 0.64
O=C(Oc1ccc(Cl)c2cccnc12)N1CCCCC1 | i | 1.5% | -1.1
Clc1ccc(-c2nnnn2-c2ccc(Cl)c(Cl)c2)cc1Cl | i | 2.7% | /
CC(C)C(c1nnnn1Cc1ccc(F)cc1)N1CCN(Cc2ccc3c(c2)OCO3)CC1 (stereo not given) | i | 1.0% | 0.25
CCOc1c(C)cc2[nH]c(CCC(=O)O)nc2c1C | i | 0.3% | -0.81
O=C(COc1ccc(S(=O)(=O)N2CCc3ccccc32)cc1Cl)NCc1ccccn1 | i | -0.9% | 0.25
O=C(NCCN1C(=O)C2C3C=CC(C3)C2C1=O)Nc1ccccc1O (stereo not given) | i | 4.8% | 1.2
Cc1ccc(-n2c(C)cc(C(=O)OCC(=O)N(C)C3CCS(=O)(=O)C3)c2C)cc1 (stereo not given) | i | -2.9% | 0.67
O=C(CCC(=O)N1CCN(S(=O)(=O)c2ccc(Cl)cc2)CC1)NC1CCCc2ccccc21 (stereo not given) | i | -1.1% | /
Cc1onc(-c2ccccc2)c1C(N)=O | i | 2.9% | -0.04
Cc1ccc(S(=O)(=O)N2CCOCC(=O)NCCOCCNC(=O)COCC2)cc1 | i | 0.6% | -0.64
O=C(CCN1CCCCC1)Nc1ccc(Br)cc1 | i | -5.3% | -0.21
Cc1nnc(C)c2c(C)n(Cc3ccc4c(c3)OCO4)c(C)c12 | i | 6.0% | 1.2
CC(C)=CC(=O)N1CCCc2ccccc21 | i | 1.1% | -0.43
Cc1nn(-c2ccccc2)cc1/C=N/O | i | 5.1% | -0.05
CC(=O)N1CCN(c2ccc(NCc3ccc(C)s3)cc2)CC1 | i | 0.7% | -1.4
O=C(OCCO)c1cc(Cl)c(C(=O)OCCO)cc1Cl | i | 1.0% | 0.48
COc1ccc(CNC(=O)C(OC(C)=O)c2ccccn2)cc1 (stereo not given) | i | -1.4% | -0.64
COc1ccc(-n2nnc3c(=O)n(C/C=C/c4ccccc4)cnc32)cc1 | i | -5.1% | -0.55
CN1CCN(S(=O)(=O)c2ccc(NC(=O)C3CCCO3)cc2)CC1 (stereo not given) | i | 0.9% | -0.3
Cc1nc(NCc2ccco2)c2c(C)c(C)sc2n1 | i | 1.5% | /
O=C(NCc1ccco1)c1ccccc1NC(=O)C1CC(=O)N(c2ccc(Cl)cc2)C1 (stereo not given) | i | -3.0% | 0.2
Cc1ccc(-c2cc(C(=O)N/N=C/c3ccco3)[nH]n2)cc1 | i | 1.6% | /
Cn1c(C(=O)N2CCCC(C(=O)NCCN3CCOCC3)C2)cc2sccc21 (stereo not given) | i | 1.6% | -0.4
CN(C)CCC(=O)c1ccc(Cl)cc1 | i | 2.0% | 0.73
C=C(C)c1cccc(C(C)(C)NC(=O)N2CCN(c3ncccn3)CC2)c1 | i | -0.7% | -0.69
CCN1CCN(C(=O)Cn2ncc3c2-c2ccccc2OC3)CC1 | i | 1.9% | 2.3
COc1c(F)c(F)c(C(=O)Nc2ccc(N3CCN(C(C)=O)CC3)c(Cl)c2)c(F)c1F | i | -0.7% | /
Cc1cc(C(C)(C)C)oc1C(=O)NCCCNC(=O)c1oc(C(C)(C)C)cc1C | i | 2.4% | /
O=C1c2cccnc2C(Nc2ccc(S(=O)(=O)N3CCCCCC3)cc2)N1Cc1ccccc1 (stereo not given) | i | 2.2% | -0.09
N#CC1=C(N)Oc2c(oc(CO)cc2=O)C1c1ccsc1 (stereo not given) | i | 6.3% | 0.87
Cc1onc(-c2ccccc2)c1-c1n[nH]c(=S)n1-c1ccccc1 | i | 3.2% | /
O=C(Cn1c(C(=O)N2CCc3ccccc3C2)cc2sccc21)c1ccccc1 | i | -3.6% | -0.7
Cc1cc(CNC(=O)c2cc(Br)ccc2Cl)nn1C | i | 1.0% | -0.45
Cc1nnc(NC2CCCCC2)[nH]c1=O | i | 6.6% | 0.94
O=C(c1cn(-c2ccccc2)nc1-c1ccc(Cl)s1)N1CCOCC1 | i | -0.4% | 0.34
O=C(NNS(=O)(=O)c1ccccc1[N+](=O)[O-])c1ccc(O)cc1 | i | 3.1% | /
CCOC(=O)C1CCCCN1Cc1cccc(OC)c1OC (stereo not given) | i | -6.1% | /
CN1CCN(C2=CC(=O)OC23CCCCC3)CC1 | i | 4.1% | /
CCOC(=O)c1ccccc1NC(=O)CN(c1ccccc1C)S(C)(=O)=O | i | 1.2% | /
Cc1cc(NCCN2CCOCC2)n2nc(C)c(-c3ccc(Cl)cc3)c2n1 | i | 4.1% | -0.1
O=C(Nc1ccc2c(c1)OCCO2)C1CCCN(S(=O)(=O)c2cccs2)C1 (stereo not given) | i | -6.3% | -0.96
CCOc1nc(OCC)nc(-n2cc(-c3ccccc3)nn2)n1 | i | 1.7% | 0.06
Cc1ccc(CSc2nnc(Nc3ccc(C)cc3)s2)cc1 | i | -0.8% | /
Cc1nnc(NC(=O)c2ccc(S(=O)(=O)N3CCCCCC3)cc2)o1 | i | 3.7% | -0.74
COc1ccc(Cl)cc1NC(=O)CC(C)c1ccccc1 (stereo not given) | i | 1.7% | /
COc1ccccc1S(=O)(=O)Nc1ccc(-c2nnc3n2CCCCC3)cc1 | i | -2.2% | /

Going on with the list:
canonical_smiles | MT1-MMP reporter | Hsc70 | WNV NS2B-NS3 inh
COc1ccc(-n2c(=O)cc(N3CCN(Cc4ccccc4)CC3)[nH]c2=O)cc1 | i | 4.3% | 0.39
Cc1cccc2sc(NC(=O)Cn3cccc3)nc12 | i | 1.1% | -0.3
O=C(OCC(=O)N1CCN(c2ccccc2)CC1)C1=COCCO1 | i | -0.9% | 0.02
CCCCNS(=O)(=O)c1ccc(OC)c2ncccc12 | i | 0.7% | 0.76
CN1CCN(CC(=O)Nc2nc(-c3ccccc3)cs2)CC1 | i | -0.7% | 0.17
CCOC(=O)c1sc(NC(=O)c2ccncc2)nc1C | i | 4.1% | /
O=C(NC1CCCCC1)C(c1ccncc1)N(Cc1ccc2c(c1)OCO2)C(=O)c1cnsn1 (stereo not given) | i | 2.6% | /
Cc1cc(C)cc(NC(=O)CN2C(=O)NC(C)(c3ccccc3)C2=O)c1 (stereo not given) | i | -6.1% | /
c1ccc(CCc2ccccc2-c2nc(-c3cccnc3)no2)cc1 | i | -5.9% | -0.15
CCOc1ccc(OCC)c(NC(=O)C2CCN(S(=O)(=O)c3cnc[nH]3)CC2)c1 | i | -5.0% | -0.97
O=C(Cn1cnc2scc(-c3ccc(F)cc3)c2c1=O)N1CCOCC1 | i | 2.6% | /
Cc1ccc(S(=O)(=O)NCCSc2nnnn2-c2cc(C)ccc2C)cc1 | i | -1.7% | 2
CCOC(=O)C1=C(C)OC(N)=C(C#N)C1c1cc2cc(C)ccc2nc1N1CCCCC1 (stereo not given) | i | -0.5% | /
Cc1ccc(-c2nc(=S)c3c(n2Cc2ccco2)CC(C)(C)OC3)cc1 | i | 2.5% | -0.89
ONC(=Nc1ccccc1)C(=Nc1ccccc1)NO | i | -6.7% | 0.23
CC(=O)Nc1cccc(NC(=O)CSc2nnc(Cc3cccn3C)n2-c2ccc(C)cc2)c1 | i | -10% | -0.96
Cc1ccc(N2C(=O)CC(NCc3ccc4c(c3)OCO4)C2=O)cc1Cl (stereo not given) | i | -0.7% | -0.58
CCOC(=O)c1cccc(S(=O)(=O)N(CCO)Cc2cc3cc(OC)ccc3[nH]c2=O)c1 | i | -4.7% | -0.14
CCCCSc1nc2c(cc1C#N)CCC2 | i | 0.3% | -0.26
Nn1c(-c2ccccn2)nnc1-c1ccccn1 | i | -2.6% | -1
O=c1c2ccccc2nc(SCc2nnc(-c3ccccc3)o2)n1-c1ccc(F)cc1F | i | 0.8% | 0.38
O=C(NCCCN1CCCC1=O)c1nnc(Cc2c(F)cccc2Cl)o1 | i | 124% | 0.13
Cc1ccc(Cn2cnc3ccccc32)cc1 | i | -6.0% | /
CCC(C)NS(=O)(=O)c1ccc(OCC(=O)NCC2CCCO2)cc1 (stereo not given) | i | 4.1% | /

Full records, looked up by structure. Values in the order: MT1-MMP reporter, Hsc70, WNV NS2B-NS3 inh
`Cc1cc(CNC(=O)c2cc(Br)ccc2Cl)nn1C` as listed: i, 1.0%, -0.45
`COc1cc(-c2nnc(CSc3nnc4nc(C)cc(C)n34)o2)cc(OC)c1OC` as listed: i, 1.8%, 0.64
`CCOc1cc(CN2CCN(C(=O)CC(C)C)CC2)ccc1OC` as listed: i, -5.9%, 0.22
`Cc1cc(C(C)(C)C)oc1C(=O)NCCCNC(=O)c1oc(C(C)(C)C)cc1C` as listed: i, 2.4%, /
`Cc1nnc(C)c2c(C)n(Cc3ccc4c(c3)OCO4)c(C)c12` as listed: i, 6.0%, 1.2

(more compounds)
canonical_smiles | MT1-MMP reporter | Hsc70 | WNV NS2B-NS3 inh
COc1ccc(NC(=O)COC(=O)c2ccc(OCc3c(C)noc3C)cc2)cc1OC | i | 0.6% | /
O=C(NC1CCCCC1)N(CCN1CCCC1)Cc1cc2cc3c(cc2[nH]c1=O)OCCO3 | i | 7.9% | 0.29
CC1=C(C)CC(C(=O)Nc2cccc(Cl)c2)C(C(=O)O)C1 (stereo not given) | i | 3.1% | 0.27
COc1ccc(NC(=O)CN2CCN(S(=O)(=O)c3ccc(Cl)cc3)CC2)cc1Cl | i | 17% | 0.19
CC1CN(c2nc3ccccc3nc2C(C#N)C(=O)OC2CCCCC2)CC(C)O1 (stereo not given) | i | -138% | 0.85
Cc1cc(C)n(-c2nc(C)nc(N)n2)n1 | i | -4.9% | -0.68
O=C1CCCC2=C1C(c1cccc(Br)c1)n1nc(-c3ccco3)nc1N2 (stereo not given) | i | 0.0% | -0.51
COCCN1CCN(c2c3c(nc4cc(-c5cccc(F)c5)nn24)CCC3)CC1 | i | -2.4% | /
COc1ccc(-c2nn(-c3ccccc3)cc2/C=N/N2C(=O)CSC2=S)cc1 | i | -3.6% | /
COC(=O)c1[nH]c(C)c(/C(O)=C2\C(=O)C(=O)N(CCN3CCOCC3)C2c2cccnc2)c1C (stereo not given) | i | -1.8% | -0.22
CC(=O)c1c(C)nc(-c2ccc3c(c2)OCO3)n1O | i | 0.1% | 0.0048
COCC(=O)Nc1ccc(C(N)=O)cc1 | i | -2.6% | 0.23
CC1=CC(C)(C)NC(=S)N1c1cccc2ccccc12 | i | 0.4% | /
COc1ccc(CN2C(=O)[C@@H]3C(c4ccccc4Cl)=NO[C@@H]3C2=O)cc1 | i | 1.0% | -0.25
CCCOC(=O)CCCC[C@H]1SC[C@@H](NC(=O)OC)[C@H]1NC(=O)OC | i | -1.8% | /
COc1cc2c(C(=O)N3CCN(c4ccccc4)CC3)c(C)oc2cc1Br | i | -4.1% | -0.39
CCCNS(=O)(=O)c1ccc(OCC(=O)Nc2ccccc2F)cc1 | i | -3.4% | -0.11
COc1ccc(OC)c(C(=O)c2coc3ccc(O)cc23)c1 | i | 2.8% | -1.7
CCOc1ccccc1Oc1coc2cc(OC(=O)c3ccco3)ccc2c1=O | i | 8.8% | -0.36
COc1ccc(Cl)cc1NC(=O)NC(C)c1ccncc1 (stereo not given) | i | -0.8% | -0.77
NC(=O)CC(NC(=S)NCc1ccccc1)C(=O)O (stereo not given) | i | 1.6% | /
CCCc1nc(SCc2ccccn2)c2c(=O)n(C)c(=O)n(C)c2n1 | i | 6.2% | -0.12
CCc1ccc(C(=O)N2CCCC2)s1 | i | -4.8% | 2.1
CCN(CC)c1ccc2c(Cl)c(Br)c(=O)oc2c1 | i | 66% | -0.28
COc1ccc(CC(=O)Nc2c3c(nn2-c2cccc(C)c2C)CS(=O)(=O)C3)cc1 | i | 1.1% | 0.67
